Screens as filed in PubChem.
VACV Venus inh: vaccinia inhibition (Venus reporter). Vaccinia virus Venus reporter expression, fluorescence. Potency, µM (doses to about 36.5 µM), without a hit: at the highest dose activity change, negative = inhibition, most hits filed as inhibitors. 330,000 compounds, 0.46% hits; active means well fitted inhibition curve with a large enough effect; inconclusive means small, poorly fitted or top-dose-only effect; inactive means no such curve, though single readings can be large or run the other way; tested in A549 cells; note: nearly all actives have a fitted effect of over 30% in size; inactives centre near -10
VACV mCherry inh: inhibitors of vaccinia virus infection (mCherry reporter signal); AID 720579; Potency, µM (top dose mostly 36.5 µM), without a hit: at the highest dose activity change, negative = inhibition, hits mostly inhibitors; Vaccinia virus mCherry reporter infection, fluorescence; about a quarter of the inactives have no number; 310,000 compounds, 0.63% hits; active = well fitted inhibition curve with a large enough effect; inconclusive = small, poorly fitted or top-dose-only effect; inactive = no such curve, though single readings can be large or run the other way; tested in A549 cells; note: nearly all actives have a fitted effect of over 35% in size; inactives centre near -10
An asterisk follows results filed as active; i = inactive; ? = inconclusive; . = no result given; [ ] = remark or other dose. % is set by controls: 0 for no effect and ±100 for the full control effect; potency is the fitted concentration of half-maximal effect. Hits appear at their usual frequency (roughly 0.82% active in at least one column).

SMILES | VACV mCherry inh | VACV Venus inh
CCOC(=O)C1CCN(C(=O)Nc2cccc(Cl)c2)CC1 | -14% | -14%
Cc1[nH]n(-c2ccccc2)c(=O)c1/C=C1\C=NN=C1c1ccccc1 | ? | -17%
Cc1ccc(OCCSc2nc3ccccc3n2CC(=O)N2CCCCC2)c(C)c1 | 0% | -7%
CCSCC(C)(C)n1[nH]c2ccccc2c1=O | -14% | -2%
Cc1cccnc1CCNCc1c(C(=O)N2C[C@@H](C)O[C@@H](C)C2)nc2ccc(Cl)cn12 | -24% | -23%
Fc1cccc(CCN2CCNC[C@H]2Cc2cccc3ccccc23)c1 | ? | -24%
CC(=O)Cn1c(N2CCC(Cc3ccccc3)CC2)nc2c1c(=O)[nH]c(=O)n2C | . | -8%
COC(=O)c1ccc(Cl)c(NC(=O)CN(c2ccc(OC)c(OC)c2)S(C)(=O)=O)c1 | -9% | -11%
O=C(Oc1ccccc1-c1nnco1)c1ccc(Cl)cc1 | . | -17%
CCc1ccc(C(=O)CSc2n[nH]c(-c3ccncc3)n2)cc1 | -3% | -3%
O=C(NCc1cc([N+](=O)[O-])ccc1O)c1cccc(NS(=O)(=O)c2ccccc2)c1 | i | -9%
Cc1[nH]c2ccccc2c1SCC(=O)O | . | 3%
Cc1ccc(/C=N/NC(=O)c2cccc(S(=O)(=O)Nc3ccccc3Cl)c2)s1 | -3% | -14%
CCc1cc(C(=O)N2CCCC(CCC(=O)N3CCN(c4ccccn4)CC3)C2)no1 (centres undefined) | i | -2%
Cc1ccnc(-n2c(C)cc(/C=C3\C(=O)NC(=S)N(C)C3=O)c2C)c1 | -7% | -2%
O=C(c1ccc2c(Cl)c3c(nc2c1)CCCC3)N1CCN(c2cccc(C(F)(F)F)c2)CC1 | -9% | -9%
Cc1ccc(C)c(NC(=O)COC(=O)c2ccc(S(=O)(=O)N3CCCC3)cc2)c1 | ? | -29%
CCC(Oc1ccccc1)C(=O)Nc1ccccn1 (centres undefined) | -15% | -11%
CC(=O)Nc1ccc(S(=O)(=O)Nc2ccc(Cc3ccncc3)cc2)cc1 | -28% | -11%
Cn1c(=O)c2cc(NC(=S)NC3CC3)ccc2n1Cc1cccc(C(F)(F)F)c1 | -13% | -4%
Cc1c(C(=O)NCc2ccccc2Cl)sc2nc3n(c(=O)c12)CCCCC3 | -9% | -8%
O=C(c1ccco1)N1CCN(C(c2ccc(F)cc2)c2nnnn2Cc2cccs2)CC1 (centres undefined) | i | -17%
Cc1ccc(C(=O)Nc2cccc(C(F)(F)F)c2)cc1Nc1cnccn1 | -2% | -26%
CN1CCN(c2ccc(CNC(=O)C3Cc4c(-c5cccc(F)c5)ccnc4O3)cc2)CC1 (centres undefined) | i | -15%

Copied from the list:
In VACV mCherry inh, Cc1ccc(/C=N/NC(=O)c2cccc(S(=O)(=O)Nc3ccccc3Cl)c2)s1 is listed with -3%
In VACV Venus inh, CC(=O)Cn1c(N2CCC(Cc3ccccc3)CC2)nc2c1c(=O)[nH]c(=O)n2C is listed with -8%
In VACV Venus inh, Cc1[nH]c2ccccc2c1SCC(=O)O is listed with 3%
In VACV mCherry inh, CCC(Oc1ccccc1)C(=O)Nc1ccccn1 (centres undefined) is listed with -15%

(cont.)
SMILES | VACV mCherry inh | VACV Venus inh
COC(=NC(C)C)NC(C)C | -10% | 1%
O=C(Nc1cccc(Cl)c1)C(Cc1ccccc1)n1cccc1 (centres undefined) | -26% | -27%
CC(=O)c1cccc(OCC(O)CNCC2COc3ccccc3O2)c1 (centres undefined) | 0% | -3%
Fc1ccc(CSc2ccc(-c3ccco3)nn2)cc1 | i | -17%
Cc1ccc(C(=O)N2CCC(N3CCC(C(=O)N4CCOCC4)CC3)CC2)cc1C | -6% | -17%
COc1ccccc1NC(=O)c1ccc(S(=O)(=O)N(C)C)cc1 | i | -10%
Cc1ccc(N(NC(=O)C(O)(c2ccccc2)c2ccccc2)C(=O)CCl)cc1 | ? | ?
Cc1cnc(CNC(=O)C2CCC(=O)N(Cc3ccc(Cl)cc3)C2)[nH]1 (centres undefined) | -7% | -5%
CN1CCN(C(=O)/C=C\c2ccc(Cl)cc2)CC1 | i | -7%
COc1ccccc1CNC(=O)C1CCN(S(=O)(=O)c2cccc([N+](=O)[O-])c2)CC1 | -2% | -6%
COc1ccc(CCNC(=O)C(=O)NCC2OCCN2S(=O)(=O)c2ccc(Cl)cc2)cc1 (centres undefined) | ? | -22%
O=C(CSc1nc(-c2ccco2)nc2cc(=O)[nH]n12)Nc1ccc(F)cc1 | -3% | -1%
CCC(C)NC(=O)c1oc2ccc(S(=O)(=O)N3CCC4(CC3)OCCO4)cc2c1C (centres undefined) | 3% | -4%
COc1cc2nc(N3CCCN(C)CC3)nc(NC3CCCCC3)c2cc1OC | -19% | ?
COc1ccc(CCNc2nc(C)cc(C)n2)cc1OC | i | -14%
Cc1cccc(NC(=O)CSc2nnc(-c3ccco3)o2)c1C | . | -13%
Cc1ccc(C)c(CSC2=NCCN2C(=O)c2cccs2)c1 | -25% | -14%
O=C(CSc1nc2c(c(=O)[nH]1)CN(Cc1ccc3c(c1)OCO3)CC2)Nc1ccc(F)cc1 | -10% | 4%
N#CCCn1cc(C(=O)Nc2ccc(C(=O)O)cc2)c(-c2cccc(Br)c2)n1 | -14% | -6%
Cc1cc(NC(=O)CCC(=O)N(Cc2ccccc2)C2(C(=O)NC3CCCCC3)CCCC2)no1 | i | -13%
COC(=O)C1=C(c2c(C)noc2C)C[C@@H]2CC[C@H]1N2C(=O)NC1CC1 | i | -3%
COc1ccccc1CCNC(=O)C(=O)Nc1cc2c3c(c1)CC(=O)N3CCC2 | -6% | -16%
N#Cc1c(-n2ncnc2-c2ccccc2C(F)(F)F)sc2c1CCCCC2 | -5% | 8%
CC(/C=N/n1c(-c2cc(C)[nH]n2)n[nH]c1=S)=C\c1ccccc1 | i | -11%
Cc1cc(C)n(CCNC(=O)CCc2nnc(CCc3ccccc3)o2)n1 | i | -9%
Cc1ccc(S(=O)(=O)N2CCCC2C(=O)Nn2cnnc2)cc1 (centres undefined) | 2% | 6%
O=C(CCCN1C(=O)/C(=C\c2cccs2)SC1=S)NNC(=O)c1cccnc1 | -21% | -18%
C#Cc1ccc([C@H]2C=C(C(=O)N3CCN(Cc4ccccc4)CC3)O[C@@H](OCc3ccc(CO)cc3)C2)cc1 | -20% | ?
O=C(c1ccccc1)c1ccc(OC(=O)N2CCOCC2)cc1 | i | -9%
CC(C)CNC(=O)NC(=O)COC(=O)c1ccccc1Sc1ccc(C(F)(F)F)cc1[N+](=O)[O-] | -15% | -5%
O=C(Nc1cc(-c2ccccc2)nn1-c1c(Cl)cccc1Cl)c1ccc(F)cc1 | ? | ?
Cn1ccnc1SCC(=O)NC1CCCCC1 | . | -17%
COCCCNC(=O)C(=O)Nc1ccc2c(c1)N(S(=O)(=O)c1cccs1)CCC2 | -27% | ?
N#Cc1c(C(F)(F)F)cc(Cc2ccccc2)nc1SCC(=O)NCC(=O)O | -11% | -6%
COc1ccccc1CC(=O)Nc1cccc(C(=O)NN2C(=O)c3ccccc3C2=O)c1 | -20% | -6%
O=C(Nc1nc(-c2ccc3ccccc3c2)cs1)c1ccc(N2C(=O)CCC2=O)cc1 | ? | ?
COc1ccc2c(=O)c(-c3cnn(-c4ccccc4)c3)c(C)oc2c1 | -9% | -23%
Cc1c(NC(=S)N/N=C/C=C/c2ccccc2)c(=O)n(-c2ccccc2)n1C | -10% | -17%
O=C(COC(=O)C1CC1)NC(=O)NCc1ccccc1 | 0% | -5%
COc1ccc(N=Cc2cc(Cc3ccccc3Cl)cc([N+](=O)[O-])c2O)cc1OC | -4% | -16%
O=C(NNC1=C(C(=O)C(F)(F)F)CCC1)c1cccc(Cl)c1 | . | -25%
CCCCCC(=O)Nc1cc(S(=O)(=O)N2CCOCC2)ccc1N1CCN(C)CC1 | -12% | 3%
Clc1ccc(-c2cnc(Oc3ccccc3)nc2)cc1 | . | -18%
CCCn1c2c(c(O)c(C(=O)Nc3nccs3)c1=O)CCCC2 | . | 0%
COC(=O)N1CCN(c2ccc(C)cc2)C(C)C1 (centres undefined) | i | -11%
COCCCNC(=O)/C(C#N)=C/c1c(N2CCN(C)CC2)nc2c(C)cccn2c1=O | -6% | -1%
COCCCNC(=O)/C(C#N)=C/c1cc(C)[nH]c1C | -14% | -16%
CCOc1cc(S(=O)(=O)NC2CCCC2)ccc1Cl | . | 21%
COc1ccc(S(=O)(=O)N(C)C[C@H]2Oc3ccc(NC(=O)NC(C)C)cc3C(=O)N([C@H](C)CO)C[C@@H]2C)cc1 | i | -15%
c1ccc2c(c1)OCCOCCOCCO2 | -2% | 1%
C#CC(CC)(CC)NC(=S)Nc1ccc(S(N)(=O)=O)cc1 | -20% | -15%
O=C(Nc1cccc(Nc2ccccc2)c1)c1cnn2c1NC(=C1CC1)C=C2C(F)F | -12% | -18%
COc1ccc(NC(=O)CCCC2=NS(=O)(=O)c3ccccc3N2)cc1 | -13% | -1%
O=C(c1ccco1)N(Cc1cccs1)C1CCS(=O)(=O)C1 (centres undefined) | . | -17%
Nc1nc2ccccc2cc1C(=O)NCc1ccc(Cl)cc1Cl | -14% | -9%
O=C(OCN1C(=O)c2ccccc2C1=O)C1CCCCC1 | -30%[1.46 µM] | -8%
COc1ccc(NC(=O)Nc2ccc3nccnc3c2)cc1 | . | -15%
Cc1ccc(-c2nc3[nH]c(=O)cc(NC(=O)C(C)C)n3n2)cc1 | -12% | 1%
Cc1ccc(-n2ncc3c(N(C)Cc4ccccc4)ncnc32)cc1 | -17% | 2%
CS(=O)(=O)c1ncc(N(Cc2ccccc2)Cc2ccco2)c(C(=O)Nc2cccc(C(F)(F)F)c2)n1 | -3% | -7%

Continued; the last 2 above are carried over.
SMILES | VACV mCherry inh | VACV Venus inh
Cc1ccc(-n2ncc3c(N(C)Cc4ccccc4)ncnc32)cc1 | -17% | 2%
CS(=O)(=O)c1ncc(N(Cc2ccccc2)Cc2ccco2)c(C(=O)Nc2cccc(C(F)(F)F)c2)n1 | -3% | -7%
COc1ccc(S(=O)(=O)N(CC(=O)Nc2ccccc2Cl)Cc2ccccc2)cc1 | -13% | 1%
CCCCn1c(=O)c(C(=O)Nc2cnccn2)c(O)c2ccccc21 | -15% | 0%
Cc1ccc(/C=C/C(=O)N2CCc3ccccc3C2)cc1 | . | -16%
CSc1sc(C(=O)NCC2CC2)cc1S(=O)(=O)C(C)C | -18% | -9%
CN(C)CCN(Cc1ccccc1)c1ccnc(N(C)C)c1C#N | . | -13%
COc1ccc(C2=NN(S(C)(=O)=O)C(c3cccs3)C2)cc1OC (centres undefined) | 0% | -12%
CN(Cc1ccc(Cl)cc1Cl)C(=O)c1cc(=O)c2ccccc2o1 | i | -7%
O=C1c2cccc3c([N+](=O)[O-])ccc(c23)C(=O)N1c1ccccn1 | i | 10%
CN(CC(=O)Nc1ccc(S(=O)(=O)N2CCCC2)cc1)Cc1ccc(Cl)cc1 | -32% | -21%
CC1Cc2nc(SCC(=O)NCc3ccco3)n(Cc3ccccc3)c(=O)c2S1 (centres undefined) | -12% | 9%
O=C(c1ccc(Cl)cc1)n1c(NCc2ccccc2)n[nH]c1=S | i | 6%
CCn1nc2cc(C(=O)NCCc3cccs3)ccc2c1OC | -9% | -2%
CCOC(=O)C1C(c2ccc3c(c2)OCO3)NC(=O)NC1(O)C(F)(F)F (centres undefined) | -17% | -1%
CCCCNc1c(N)n(CCC)c(=O)[nH]c1=O | -15% | -8%
O=C(CN1CCOCC1)OCCCC1CCCCC1 | -14% | -16%
CCN(CC)c1ccc2c(C)c(Cl)c(=O)oc2c1 | -2% | -25%
O=C(NCc1ccc2c(c1)OCO2)C1Cc2ccccc2CN1C(=O)c1ccco1 (centres undefined) | 1% | 5%
CCCCC(=O)Nc1nnc(CCOC)s1 | -16% | -13%
Cn1c(SCC(=O)Nc2nccs2)nnc1-c1ccncc1 | -8% | 4%
CCOC(=O)c1c(C)n(C)c2ccc(OC)c(NC(=O)CN3CCCCC3)c12 | -3% | -10%
CCCN1C(=O)/C(=C2\SC(=S)N(c3c(C)n(C)n(-c4ccccc4)c3=O)C2=O)c2ccccc21 | i | 3%
COc1ccc(CN=C2NC(=O)CC(C(=O)Nc3ccc([N+](=O)[O-])cc3C)S2)cc1 (centres undefined) | -2% | -5%
COc1ccc(C2C(C(C)=O)=C(O)C(=O)N2Cc2cccnc2)cc1 (centres undefined) | -15% | -15%
C=CCOc1ccc(C2C3=C(CCCC3=O)N(CC(=O)O)C3=C2C(=O)CCC3)cc1OCC | i | -5%
CC(=O)N1N=C(c2ccc(Cl)cc2)OC1(C)C | i | -4%
CCOc1ccc(-c2noc(CSc3nnc(Cc4ccccc4)n3-c3ccc(F)cc3)n2)cc1 | -18% | -15%
O=C(O)c1ccc(Cl)c(NC(=O)C2CCN(S(=O)(=O)c3ccc4c(c3)OCCO4)CC2)c1 | i | -10%
Cc1noc(C)c1S(=O)(=O)NC(=O)C1(C)CCN1C(=O)Cc1ccc(Cl)cc1Cl (centres undefined) | i | -5%
O=C(Cc1cccc(F)c1)Nc1ccc2c(c1)CCC2 | -9% | -12%
CCOC(=O)c1ccc(NC(=O)NCc2ccc(OC)cc2)cc1 | -18% | 3%
COc1ccc(/C=C2/CCc3ccccc3C2=O)cc1CN1CCOCC1 | -15% | -6%
Cc1cc(C(O)c2ncc(-c3cccc(F)c3)[nH]2)ccc1F (centres undefined) | i | -25%
